eIF4H inh – human eIF4H binding inhibitors, primary screen, translation initiation inhibitor project, biochemical, uHTS, fluorescence polarization | Eukaryotic translation initiation factor 4H (Homo sapiens), Q15056 | eIF4H fluorescence polarization binding assay | inhibition, % at 35 µM | 0.94% of 290,000 active | AID 2012, 2009;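 active = 50% or more with normal probe brightness, or confirmed in later tests; inconclusive = above 50% with abnormal brightness, or retests that disagree; inactive = below 50% or failed in later tests; about a fifth of its hits are not listed in these tables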;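 also: calls also rest on retests at 20 µM and on dose response follow-up; 0% = protein and probe with vehicle and 100% = probe without protein; strong numbers were not always called active; many hits fall short of the cut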
PABP polyA inh – PABP poly(A) RNA binding inhibitors, primary screen, biochemical, fluorescence polarization, uHTS; Polyadenylate-binding protein 1 (Homo sapiens), P11940; inhibition, % at 35 µM; AID 2014, 2009; 1% of 290,000 active;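 active = 50% or more with normal probe brightness, or confirmed in later tests; inconclusive = above 50% with abnormal brightness, or retests that disagree; inactive = below 50% or failed in later tests; about a fifth of its hits are not listed in these tables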;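 also: calls also rest on retests at 20 µM and on dose response follow-up; controls were probe without protein and protein plus probe with vehicle; some compounds called inactive have numbers as strong as hits; many hits fall short of the cut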
Env fusion inh – inhibitors of HIV-1 Env-driven cell-cell fusion, primary screen, HeLa-JRFL effector, CEM21 target cells, luciferase. inhibition, % at 12.3 µM. 1.1% of 360,000 active;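 active = mean replicate inhibition score of at least 50 and every replicate individually at or above 50; inconclusive = only one of the two criteria met; inactive = mean below 50 and not all replicates reaching 50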;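 also: 0% = plate neutral controls and 100% = maraviroc near 300 nM; one replicate is shown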
MT1-MMP act inh – blockers of MT1-MMP proenzyme processing, primary screen, HT1080 RFP-PRO-GFP cells, GFP/RFP fluorescence | Matrix metalloproteinase-14 (Homo sapiens), P50281 | GFP/RFP ratio fluorescence, overnight; percent of plate control window, DMSO zero | GFP/RFP ratio change, % at 20 µM | 0.061% of 360,000 active;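 active = GFP/RFP ratio change of at least 30% with cell ATP level not reduced by more than half and red fluorescence within 50% of control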; also: strong numbers were not always called active
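Assay system: HT1080 RFP-PRO-GFP cells. Benchmarks: DMSO vehicle wells and RFP-L50D-GFP reporter cell wells. Times: overnight cell settling, then overnight compound exposure, 37 °C, 5% CO2. Compound: 20 µM single dose, 1% DMSO. Read-out basis: GFP/RFP fluorescence ratio.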
Yeast UUG start – modulators of yeast start codon fidelity, primary screen, whole organism, S. cerevisiae, single point, plate reader; S. cerevisiae UUG-firefly luciferase reporter, luminescence/redox ratio; activity score, % at 18.7 µM; 0.13% of 350,000 active;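 active = replicate mean at a twofold rise or more, about +100% in these data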;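 also: firefly luciferase made from a UUG start codon reports start codon fidelity; reporter light over untreated wells divided by growth signal over untreated wells; some hits fall short of that in this replicate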
Rce1 inh – yeast Rce1p protease inhibitors, primary screen, biochemical, fluorescence, cell-free homogeneous; 0.27% of 290,000 active; CAAX prenyl protease 2 (Saccharomyces cerevisiae (strain ATCC 204508 / S288c)), Q03530; yeast membranes, quenched prenylated peptide cleavage fluorescence; AID 2563, 2010; calls only;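 active = fall in fluorescence gain of 50% or more versus controls, with final raw signal at or below 3038400; inconclusive = same 50% fall but final raw signal above 3038400; inactive = fall in fluorescence gain under 50%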;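 also: plate controls were neutral control wells for no effect and wells lacking membranes for full effect; tested at 10 µM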
Target sequence (Q03530 whole entry, looked up): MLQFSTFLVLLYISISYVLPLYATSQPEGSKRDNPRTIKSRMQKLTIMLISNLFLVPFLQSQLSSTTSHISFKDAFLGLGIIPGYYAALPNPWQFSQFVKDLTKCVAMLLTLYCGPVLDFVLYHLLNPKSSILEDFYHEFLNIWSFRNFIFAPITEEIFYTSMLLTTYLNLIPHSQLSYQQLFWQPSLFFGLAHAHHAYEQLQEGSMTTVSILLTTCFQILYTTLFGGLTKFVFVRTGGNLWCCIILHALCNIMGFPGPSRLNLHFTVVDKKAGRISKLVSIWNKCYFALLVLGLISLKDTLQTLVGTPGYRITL
CSC inhib – cancer stem cell viability inhibitors, primary screen, luminescence; 1.1% of 300,000 active; cancer stem cell-like cells viability; inhibition, % at 7.5 µM; AID 2717, 2010;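 active = mean at 75% or more and at least half the replicates too; inconclusive = mean and replicates disagree; tested in HMLE shEcad cells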;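 also: 0% = median of negative and 100% = median of positive control wells; the first replicate is given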
eIF4H inh retest – recorded beside eIF4H inh, whose call it bears; inhibition, %; compound at 20 µM; confirmation average;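 mean of two retest wells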
PABP polyA inh retest – recorded beside PABP polyA inh, whose call it bears; inhibition, %; compound at 20 µM; confirmation repeats;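 mean of two retest wells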
MT1-MMP act inh RFP – recorded beside MT1-MMP act inh, whose call it bears; RFP signal change, %; measured here: RFP expression control read;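 0 = vehicle wells; hits needed this value within 50% of zero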
* marks the source's active call; other numbers are inactive results; i = inactive; ? = inconclusive; . = not tested or not shown. Not a hit list; overall some 2.9% were active at least once.

SMILES | eIF4H inh | PABP polyA inh | Env fusion inh | MT1-MMP act inh | MT1-MMP act inh RFP | Yeast UUG start | Rce1 inh | CSC inhib | others
C[n+]1cccc(C2C(C#N)=C(N)Oc3c2ccc2ccccc32)c1 (stereo unspecified) | 32 | 70* | -17 | -4 | -1 | -4 | i | 21 | eIF4H inh retest=35;PABP polyA inh retest=98*
CC(=O)Oc1ccc(-c2cccc(C(=O)N3CCCCC3)c2)cc1 | 6 | 6 | -8 | 2 | 1 | 6 | i | -12
O=C(CCc1ccccn1)NC1CCCc2c1cnn2-c1ccc(F)cc1F (stereo unspecified) | -8 | 9 | 4 | -3 | -11 | -6 | i | -5
Nc1nc(CSC(=S)N2CCN(c3ccccc3)CC2)nc(Nc2ccc(F)cc2)n1 | 2 | 0 | 26 | -5 | -23 | -13 | i | .
O=Cc1cccc(Oc2ccc([N+](=O)[O-])cc2[N+](=O)[O-])c1 | 1 | 1 | -15 | 0 | 4 | . | i | 57
COc1ccc(C(=O)NCc2nnc(SCC(=O)N3CCOCC3)o2)cc1 | -11 | -6 | 6 | -4 | -1 | . | i | 7
CN(C)c1ccc(NC(=O)CSc2nnc(-c3cnccn3)n2C)cc1 | 3 | 4 | . | 0 | 3 | -15 | i | -13
O=C(CNC(=O)c1ccccc1F)NCc1cccnc1 | -1 | 4 | -6 | -1 | 4 | -18 | i | -16
Cc1ccc2c(c1)C(c1ccccc1)N(C(=O)c1ccccc1)CC(=O)N2 (stereo unspecified) | -6 | 1 | 3 | -1 | -3 | . | i | -14
CC(=N\NC(=O)c1cc(Br)ccc1O)/C(=N/O)C(=O)Nc1ccccc1 | 6 | 17 | 4 | -4 | -13 | . | i | 37
CC1(C(=O)O)CCCN1C(=O)c1cc2ccccc2s1 (stereo unspecified) | . | . | -5 | 2 | 4 | -14 | . | .
Cn1c(SCc2ccc3c(c2)OCO3)nnc1-c1ccccc1 | -4 | 4 | . | 11 | 3 | -8 | i | -14
Cn1c(Cn2nnc(-c3ccccc3)n2)nnc1SCc1ccccc1Cl | 4 | 17 | 28 | -4 | -1 | . | i | -13
S=C(NCCCN1CCOCC1)Nc1ccc(Nc2ccccc2)cc1 | -1 | -17 | 7 | 3 | -3 | -22 | i | -10
COC(=O)c1cccc(C(=O)N2CCC(CO)(CCc3ccccc3)CC2)c1 | 0 | 10 | 3 | 3 | 1 | -6 | i | -6
O=C(Nc1cccc2ccccc12)NC1Cc2ccccc2C1 | 1 | -5 | 18 | -3 | -3 | -8 | i | 2
CC1(C)C=C(c2ccc(O)cc2)CC(C)(C)N1 | -1 | 6 | . | 1 | 4 | 5 | i | 11
CS(=O)(=O)c1nsc2nc(=O)c(/C=C3\C=Nc4ccccc43)c(N)n12 | 1 | -2 | 18 | 1 | 2 | 8 | i | -14
CC(C)Cn1cc(Cl)c(=O)n(CC(C)C)c1=O | -6 | -3 | -21 | -2 | -1 | . | i | -5
COc1cc(C(=O)Oc2cccc(/C=N/NC(=O)c3cc(C)[nH]n3)c2)cc(OC)c1OC | 0 | 6 | -17 | 10 | -4 | -21 | i | -7
O=C(O)c1cccc(C(=O)c2cccc(C(=O)O)c2)c1 | -13 | -3 | 12 | -2 | 2 | -5 | i | -2
CCC(C(=O)N1CCN(c2ccccc2OC)CC1)c1ccccc1 (stereo unspecified) | 6 | 27 | 1 | -5 | -2 | 2 | i | 26
COc1ccc(N(CC(=O)N/N=C/c2cc3ccc(OC)cc3nc2Cl)S(=O)(=O)c2ccccc2)cc1 | -15 | ? | . | . | . | . | i | -8
CCC(=O)N1CCC1(C)C(=O)Nc1ccc2nc(C)ccc2c1 (stereo unspecified) | . | . | 22 | 3 | 8 | -11 | . | .
CC(=O)Nc1nnc(CSCc2ccc(F)cc2)s1 | 2 | 4 | -3 | -1 | 1 | -6 | i | -9

Pulled by compound from the entries so far:
SMILES | eIF4H inh | PABP polyA inh | Env fusion inh | MT1-MMP act inh | MT1-MMP act inh RFP | Yeast UUG start | Rce1 inh | CSC inhib | others
COC(=O)c1cccc(C(=O)N2CCC(CO)(CCc3ccccc3)CC2)c1 | 0 | 10 | 3 | 3 | 1 | -6 | i | -6
O=C(CNC(=O)c1ccccc1F)NCc1cccnc1 | -1 | 4 | -6 | -1 | 4 | -18 | i | -16

The main list resumes; the two compounds before the break are reprinted first.
SMILES | eIF4H inh | PABP polyA inh | Env fusion inh | MT1-MMP act inh | MT1-MMP act inh RFP | Yeast UUG start | Rce1 inh | CSC inhib | others
CCC(=O)N1CCC1(C)C(=O)Nc1ccc2nc(C)ccc2c1 (stereo unspecified) | . | . | 22 | 3 | 8 | -11 | . | .
CC(=O)Nc1nnc(CSCc2ccc(F)cc2)s1 | 2 | 4 | -3 | -1 | 1 | -6 | i | -9
CCCCCCn1c(O)c(/C=C2\C=NN=C2c2ccccc2)sc1=S | -3 | 16 | 15 | 10 | -3 | . | i | 8
O=C(CC1C(=O)NCCN1CC1CCCCC1)NCc1ccc(F)cc1F (stereo unspecified) | 5 | 6 | 7 | 3 | 0 | . | i | -8
CN1OC[C@@H]2CN(C(=O)CCc3ccccc3)[C@H](c3cccc(-c4ccc(C#N)cc4)c3)C[C@@H]21 | . | . | -6 | -5 | -3 | -7 | . | .
Cc1ccc(C)n1-c1ccc(N(C)C)cc1 | 7 | -5 | -55 | 7 | 4 | . | i | -12
CCCc1[nH]c(=O)c(C#N)c2c1CCCC2 | 2 | -1 | -64 | 0 | 0 | -15 | i | -11
CN1CCN(C(=O)C2CCN(S(=O)(=O)c3cnc[nH]3)CC2)CC1 | -4 | -5 | . | -6 | 1 | -16 | i | -10
C/C(=C\C(=O)Nc1cscc1C)C(=O)O | -7 | 8 | 5 | 3 | 1 | . | . | -2
CCN1CCN(c2ccc(S(=O)(=O)N3CCCCC3)cc2NC(=O)/C=C/c2cccc(OC)c2OC)CC1 | -4 | 11 | -14 | -5 | -3 | -8 | i | 3
C=CCN(CC=C)C(=O)C1c2ccccc2Oc2ccccc21 | . | . | 21 | 3 | -4 | 2 | . | .
O=S(=O)(c1ccc(F)cc1)N1CCN(Cc2nnc(-c3ccccc3)o2)CC1 | . | . | . | 1 | -3 | -20 | . | -12
COc1ccc2c3c(c(=O)oc2c1OCC(=O)C(C)(C)C)CCCC3 | -5 | 5 | . | 0 | -3 | -9 | i | 1
Cn1c(SCc2ccccc2Cl)nc(C(F)(F)F)cc1=O | -8 | 5 | -19 | -10 | -5 | -12 | i | 2
O=C(N/C(=C\c1ccco1)C(=O)N1CCCC1CO)c1ccccc1 (stereo unspecified) | 18 | 23 | 6 | -8 | 3 | -10 | i | 11
O=C1c2ccccc2C(=O)N1c1n[nH]c(CCc2ccccc2)n1 | -4 | -3 | . | -7 | -1 | -16 | i | -1
Cc1cccc2c1CC(C)(C)N=C2C1=C(O)CC(C)(C)CC1=O | -5 | 7 | . | 2 | 0 | . | i | 1
Cc1nc2sc3c(c2c(=N)n1N)CCCC3 | -6 | 1 | -5 | 4 | 6 | . | i | -1
CCc1ccccc1NC(=S)N1CCC(NC(=O)c2ccc(OC)cc2)CC1 | 2 | -4 | 18 | 5 | 0 | . | i | -2
Cc1nccn1CCC(=O)Nc1ccc(Cl)cc1 | 0 | -6 | 1 | 0 | 4 | . | i | -11
Cc1ccc(CCNC(=O)C2CCCN(S(=O)(=O)c3cnc[nH]3)C2)cc1 (stereo unspecified) | -4 | -9 | -24 | 1 | 4 | -1 | i | 2
O=C(NNC(=O)c1ccc[nH]1)c1cccc(C(F)(F)F)c1 | -5 | -13 | 4 | 6 | 6 | -6 | i | -8
C=C(C)C(=O)O[C@H]1C/C(C)=C\C(=O)/C=C(\C)[C@H](O)[C@@H]2OC(=O)C(=C)[C@@H]21 | 12 | 16 | -423 | -12 | -21 | -14 | i | -5
CC(C)c1cc(NC(=O)CSc2nnc(-c3ccccc3F)n2C)on1 | -4 | -2 | -257 | -6 | 0 | -2 | i | -13
Cc1nc2ccc(S(=O)(=O)NC(C(=O)NC3CCCC3)C(C)C)cc2s1 (stereo unspecified) | -4 | 5 | -3 | -1 | 0 | -17 | i | -13
COCCNC(=S)N(CCc1c(C)[nH]c2ccc(C)cc12)Cc1cc(OC)c(OC)c(OC)c1 | 13 | 2 | -20 | 2 | 1 | -22 | i | -13
Cn1ccnc1-c1nnn(-c2ccc(Cl)c(Cl)c2)n1 | . | . | -10 | -4 | 2 | -19 | i | -9

Further records follow.
SMILES | eIF4H inh | PABP polyA inh | Env fusion inh | MT1-MMP act inh | MT1-MMP act inh RFP | Yeast UUG start | Rce1 inh | CSC inhib | others
O=C(NCCCO)c1ccc2[nH]c3c(c2c1)CCCC3 | -6 | 1 | . | 2 | 2 | . | i | -4
CC(C)c1ccc(/C=c2\sc3n(c2=O)C(N)=C(C#N)C(c2ccc(C(C)C)cc2)C=3C(N)=O)cc1 (stereo unspecified) | . | . | 6 | -1 | -1 | -3 | . | .
C[C@H](NS(=O)(=O)c1ccc(Cl)c(Cl)c1)C(=O)OCc1cc(=O)n2cc(Br)ccc2n1 | 69 | 2 | . | 0 | 1 | . | i | -11 | eIF4H inh retest=-13;PABP polyA inh retest=1
Cc1ccc(/C=C2/SC(=S)N(CCC(=O)N3CCN(c4ccccc4)CC3)C2=O)cc1 | -1 | -5 | . | . | . | . | i | .
CC(Sc1ccsc1[N+](=O)[O-])C(=O)NCc1ccccc1 (stereo unspecified) | -6 | 32 | 16 | . | . | . | i | -6
Cc1nc(NC(=O)C2CCCCC2C(=O)O)sc1C (stereo unspecified) | -1 | 9 | -91 | -2 | 2 | -3 | i | -2
Cc1ccc(S(=O)(=O)N2CCN(C(=O)COC(=O)c3cncc(Br)c3)CC2)c(C)c1 | . | . | -1 | 3 | 6 | . | . | 4
CN(Cc1nc2ccccc2c(=O)[nH]1)c1ccccc1 | -6 | -4 | -68 | -7 | -4 | -16 | i | -3
Cc1ccc(-c2cc(C(=O)Nc3ccc(S(=O)(=O)Nc4onc(C)c4C)cc3)c3ccccc3n2)cc1 | -2 | -2 | 4 | 4 | -2 | . | i | -2
O=C(CCn1c(=O)c2cccn2c2cccnc21)N1CCN(c2cccc(Cl)c2)CC1 | -8 | 7 | . | 1 | -4 | 13 | i | -5
CC(=O)Nc1c([N+](=O)[O-])cc2[nH]c(=O)[nH]c2c1[N+](=O)[O-] | -18 | 6 | -18 | 3 | 1 | . | i | -13
Cc1ccc(N2CC(C(=O)Nc3ccncc3)CC2=O)cc1 (stereo unspecified) | -5 | 6 | . | 2 | -1 | -12 | . | -4
Cc1cc(=O)oc2c1c(C)nn2-c1cccc(Cl)c1 | -2 | 20 | -4 | -1 | 0 | -16 | i | 11
CCOC(=O)N1CCC(NC(=O)C(NS(=O)(=O)c2cccc3nsnc23)c2ccccc2)CC1 (stereo unspecified) | 7 | 2 | -2 | 4 | 4 | . | i | -15
CCN(CC)S(=O)(=O)c1cccc(-c2nnc(SCC(=O)c3cc(C)n(C4CC4)c3C)o2)c1 | 70* | 86* | -17 | 0 | -11 | 4 | i | 27

Screening data (PubChem BioAssay)
